HCMV NEC inh: cytomegalovirus nuclear egress complex inhibition; HTRF UL50-UL53 interaction, normalized percent inhibition; inhibition, % (no concentration beside the values); actives 0.15% (n = 190,000);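 active = both replicates at 50% or more, plus weaker picks with an unusually low signal ratio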;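 note: stock transfer was 100 nL into about 20 µL; 0% = negative control wells and 100% = wells with untagged competitor protein; inactives centre near -12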
GIV Gai3 FP: blocks GIV peptide binding to rat Galpha-i3; Galpha-i3/FITC-GIV peptide fluorescence polarization, 90 min; active compounds read low; scaled: aluminum fluoride 0%, vehicle 100%; actives 0.42% (n = 210,000); P08753; percent of control (FP), % (test concentration not listed); AID 1224905;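 active = replicate mean at 85% of control or lower, very high polarization wells dropped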;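 note: lower values mean more displacement of the GIV peptide from Galpha-i3; wells of about 15 µL received 100 nL stock; the first replicate is given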
Target sequence (P08753 whole entry, looked up): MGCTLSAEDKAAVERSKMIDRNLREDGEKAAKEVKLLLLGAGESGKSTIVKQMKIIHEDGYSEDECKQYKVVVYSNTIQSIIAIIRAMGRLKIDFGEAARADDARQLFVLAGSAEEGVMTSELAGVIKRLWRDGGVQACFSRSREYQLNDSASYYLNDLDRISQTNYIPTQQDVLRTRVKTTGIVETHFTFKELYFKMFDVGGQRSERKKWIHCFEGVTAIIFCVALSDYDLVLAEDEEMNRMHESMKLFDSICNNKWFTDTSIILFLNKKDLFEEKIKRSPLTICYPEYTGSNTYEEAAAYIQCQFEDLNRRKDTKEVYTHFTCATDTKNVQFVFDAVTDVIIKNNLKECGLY
Sa growth 42C: S. aureus growth inhibition | S. aureus RN4220 growth, OD600, 20 h, 42 °C; active compounds read low | relative growth, % (test concentration not listed) | actives 0.53% (n = 170,000);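 active = growth at 42 °C up to 50% and 20 or more points under that at 30 °C, or under 10% at both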;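 note: 300 nL library stock went into each well; scaled to the means of positive and negative controls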
Sa growth 42C second temp: further read-out of Sa growth 42C, marked with its call; relative growth, %; measured here: growth at 30 °C;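 optical density after 20 h as mean of two plates; 100% = untreated growth and lower means inhibition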
Active calls of the source: *; / = no result given; & = joins results of further samples.

SMILES | HCMV NEC inh | GIV Gai3 FP | Sa growth 42C | Sa growth 42C second temp
Cc1ccc(-n2c(C)cc(/C=C3\SC(=O)N(C)C3=O)c2C)cc1 | -23.3 | 102.1 | 82.9 | 59.9
O=C(NCC(c1cccs1)N1CCOCC1)c1ccc(Cl)c(S(=O)(=O)N2CCOCC2)c1 (stereo not given) | -11.3 | / | 112.4 | 90.8
CCS(=O)(=O)N1CCN(c2nc(-c3ccccc3)ns2)CC1 | 7.0 | 104.9 | 103.4 | 97.5
Cc1noc(C)c1CCC(=O)O | -8.5 | 101.1 | 92.9 | 88.5
Cc1ccc(-c2cc(C(F)F)n3ncc(C(=O)NCC4CCCO4)c3n2)cc1 (stereo not given) | -22.6 | 104.6 | 95.2 | 78.4
COC(=O)c1ccc(COC(=O)c2c3c(nc4ccccc24)CCCC3)o1 | -4.1 | / | 85.9 | 91.7
CC(=O)N(c1ccccc1)c1nc(CSc2nncn2-c2ccccc2)cs1 | -21.8 | / | 102.2 | 81.3
CS(=O)(=O)c1ccc(NCC(=O)Nc2ccc(F)c(Cl)c2)cc1 | -30.4 | / | 77.1 | 86.8
COc1ccc(OCC(=O)Nc2nc(-c3ccc(Br)cc3)ns2)cc1 | -20.4 | 96.7 | 98.1 | 89.5
COC(=O)CNC(=O)c1cc2c(C)nn(-c3ccc(Cl)cc3)c2s1 | 0.6 | / | 109.5 | 83.3
CCCOc1ccc(/C=C/C(=O)Nc2sc(C)c(C)c2C(=O)OCC)cc1OC | -14.8 | 98.4 | 103.7 | 95.2
CC(=O)Nc1cccc2nc(C)sc12 | 7.1 | / | 101.1 | 96.2
CCOC(=O)c1c(C)oc2c1c(C=NCCc1c[nH]c3ccccc13)c(O)c1ccccc12 | / | 106.2 | 99.1 | 93.0
CSc1nnc2c(n1)OC(c1cccs1)Nc1ccccc1-2 (stereo not given) | -37.2 | 53.0* | / | /
CC(C)Oc1cccc(C(=O)NCC2CCCO2)c1 (stereo not given) | -26.1 | 99.7 | 94.9 | 104.0
COc1cc(/C=N/O)ccc1OCc1ccc(Cl)cc1 | -17.0 | 106.7 | 100.2 | 86.2
Cc1oc(-c2ccc(Cl)cc2)nc1CSCC(=O)N1CCc2ccccc21 | -7.3 | 108.0 | 100.5 | 98.2
CC(C)NC(=O)c1cccc(-c2noc(C3CCN(S(=O)(=O)c4ccc(Cl)cc4)CC3)n2)c1 | 7.0 | 97.0 | / | /
O=C(O)CC(C(=O)Nc1cc(C(F)(F)F)cc(C(F)(F)F)c1)C1=CCCCC1 (stereo not given) | -11.0 | 103.2 | 81.9 | 76.6
CC(=O)c1ccc(NC(=O)c2nc(-c3ccccc3)n(-c3ccccc3)n2)cc1 | 1.3 | 107.8 | 82.7 | 52.8
O=C(O)c1cccc(NC(=O)c2cn(-c3ccccc3)nc2-c2cc3ccccc3o2)c1 | -18.0 | / | 72.6 | 38.2
O=C(O)C1CCN(C(=O)c2ccc3nsnc3c2)CC1 | -68.6 | 105.8 | 108.6 | 90.3
CCOc1ccc(-c2nonc2NC(=O)c2ccc(C)cc2)cc1OCC | 17.5 | 99.1 | 93.0 | 96.8
N#Cc1cnc(Sc2nnc(-c3ccc(Cl)cc3)n2Cc2ccccc2)nc1N | -22.4 | 105.2 | 92.0 | 92.4
Cc1cc(C)cc(NC(=O)CCS(=O)(=O)c2cccc3nsnc23)c1 | -75.3 | 104.6 | 91.6 | 85.7

In the list so far, these contain two or more sulfur atoms:
SMILES | HCMV NEC inh | GIV Gai3 FP | Sa growth 42C | Sa growth 42C second temp
O=C(NCC(c1cccs1)N1CCOCC1)c1ccc(Cl)c(S(=O)(=O)N2CCOCC2)c1 (stereo not given) | -11.3 | / | 112.4 | 90.8
CCS(=O)(=O)N1CCN(c2nc(-c3ccccc3)ns2)CC1 | 7.0 | 104.9 | 103.4 | 97.5
CC(=O)N(c1ccccc1)c1nc(CSc2nncn2-c2ccccc2)cs1 | -21.8 | / | 102.2 | 81.3
CSc1nnc2c(n1)OC(c1cccs1)Nc1ccccc1-2 (stereo not given) | -37.2 | 53.0* | / | /
Cc1cc(C)cc(NC(=O)CCS(=O)(=O)c2cccc3nsnc23)c1 | -75.3 | 104.6 | 91.6 | 85.7

(further entries)
SMILES | HCMV NEC inh | GIV Gai3 FP | Sa growth 42C | Sa growth 42C second temp
O=C(CSc1ccccn1)Nc1ccc(-c2ccc(NC(=O)CSc3ccccn3)cc2)cc1 | 1.2 | 98.8 | 85.1 | 86.1
O=C(OCc1ccccc1)N1CN(Cc2ccccc2)Cc2c1oc1ccccc1c2=O | / | 94.6 | 101.2 | 66.3
COc1ccc(N=Cc2cc(C=Nc3ccc(OC)cc3)c(S(=O)(=O)C(C)(C)C)s2)cc1 | / | 92.9 | 86.7 | 90.2
Cc1ccc(OCc2nc(-c3ccc(C(=O)N4CCN(c5cc(Cl)ccc5C)CC4)cc3)oc2C)cc1 | -9.7 | 98.6 | 95.4 | 95.9
CCOC(=O)c1nc(NCc2ccc(Cl)cc2)c2c(C)noc2n1 | / | 98.4 | 78.6 | 55.8
CN(CC(=O)NCc1ccc(Cl)cc1)S(=O)(=O)c1ccc2[nH]c3c(c2c1)CCCC3 | / | 108.6 | 141.3 | 92.6
COc1ccc(-c2nnc(N(C)C(=O)C3CCOC3)s2)cc1 (stereo not given) | -25.4 | 102.1 | 93.2 | 86.0
O=C(OCCCN1C(=O)c2cccc3c(N4CCOCC4)ccc(c23)C1=O)c1cc([N+](=O)[O-])cc([N+](=O)[O-])c1 | -24.4 | 100.2 | / | /
Cc1cc(C)cc(NC(=O)C2COc3ccccc3O2)c1 (stereo not given) | -9.0 | 106.9 | / | /
CCCn1c(SCc2nc(-c3ccccc3OCC)no2)nnc1-c1ccc(Cl)cc1 | -8.6 | 104.4 | 81.5 | 74.0
CCCC(=O)Nc1ccc2oc(-c3ccc(O)c(Br)c3)nc2c1 | -30.8 | 102.7 | 111.5 | 79.9
NS(=O)(=O)c1ccc(NC(=O)c2csnn2)cc1 | -38.3 | 107.6 | 92.1 | 79.2
OCCOc1ccc(Br)cc1OCCO | -27.1 | / | 114.9 | 86.8
COc1ccc(CCN2C(=O)c3ccccc3C(C(=O)O)C2c2ccccc2O)cc1OC (stereo not given) | -3.9 | 109.5 | 96.3 | 99.2
CC1(C(=O)NC2CCCCC2)Cn2c(cc3ccccc32)C(=O)N1c1ccc2c(c1)OCO2 (stereo not given) | -21.1 | 102.6 | / | /
CCc1ccc(NC(=O)C2COc3ccccc3O2)cc1 (stereo not given) | 5.1 | 108.1 | / | /
O=C1CSC(=NC(=O)c2ccc(Cl)c(Cl)c2)N1 | -19.2 | / | 101.9 | 18.8
CN(C)CCOC(=O)CCN1C(=O)/C(=C/c2ccc3c(c2)OCO3)SC1=S | -142.0 | 140.7 | / | /
O=C(CSc1ncc2c(n1)-c1cc(Cl)ccc1N(Cc1ccccc1)S2(=O)=O)NCc1ccccc1 | / | 127.8 | 111.4 | 63.0
COc1ccc2c(c1)CCC1C2CC[C@@]2(C)C1CC[C@@H]2NCCCCCCN1C(=O)CCC1=O (stereo not given in full) | -3.5 | 102.1 | / | /
O=C(O)CC1(CC(=O)N2CCC(Cc3ccccc3)CC2)CCCC1 | -43.2 | / | 122.1 | 88.2
Cc1cc(Cl)ccc1NC(=O)COCC(=O)O | 3.5 | 103.7 | 102.0 | 103.4
COC(=O)c1cc(=O)c2c(C)nc(-c3ccc(Cl)cc3)nc2[nH]1 | -18.3 | / | 95.8 | 91.2
Cc1ccc(NC(=O)Cn2nnc(C(=O)NCc3cccs3)c2N)cc1Cl | / | 97.7 | 100.3 | 73.5
CCc1ccc(N=Cc2c(O)[nH]c3ccccc23)cc1 | / | 97.8 | 115.2 | 89.3
New compounds follow.
SMILES | HCMV NEC inh | GIV Gai3 FP | Sa growth 42C | Sa growth 42C second temp
O=C(OCN1C(=O)c2ccccc2C1=O)c1ccc(N2CCCC2=O)cc1 | -28.8 | / | 92.0 | 91.4
CSc1c2c(nc3cc(-c4cccs4)nn13)CC(C)(C)CC2=O | -9.4 | 102.4 | 106.3 | 87.3
O=C1OCc2cccc3cccc1c23 | -111.3 | 103.9 | 80.7 | 37.0
CC(C)CNC(=O)CCN1C(=O)c2ccccc2S1(=O)=O | / | 105.5 | 107.8 | 93.6
COC(=O)c1ccccc1NC(=O)c1cc2nc(-c3cccs3)cc(C(F)(F)F)n2n1 | -11.7 | 96.4 | / | /
CC(NC1CCCC1)c1ccccc1 (stereo not given) | -23.3 | 105.5 | 97.5 | 85.8
COc1ccc(CCNC(=O)CN(c2ccccc2)S(=O)(=O)N(C)C)cc1 | -18.4 | 104.5 | 96.3 | 83.3
COc1ccc(OC)c(-n2nnc(-c3nc(-c4cc(OC)c(OC)c(OC)c4)no3)c2C)c1 | / | 102.8 | 87.8 | 76.0
COc1ccc(N2C(=O)C3CC=CCC3C2=O)cc1 (stereo not given) | -15.0 | / | 103.5 | 88.7
O=C(O)C1CCCCC1C(=O)Nc1ccc(CN2CCCCC2)cc1 (stereo not given) | -2.5 | 107.7 | 91.2 | 100.9
Oc1cccc(Oc2ncc(C(F)(F)F)cc2Cl)c1 | -11.6 | 103.3 | / | /
O=S(=O)(NCc1ccc2c(c1)CCO2)c1cccs1 | 5.6 | 106.1 | 90.0 | 70.4
O=C(OCc1ccccc1)Sc1nnc(-c2ccccc2Cl)o1 | -5.2 | 100.4 | 109.1 | 94.6
CCOc1ccc(-n2nc3ccc(NC(=O)Cc4ccccc4)cc3n2)cc1 | -31.7 | 104.4 | 99.2 | 88.4
COCCN1Cc2cccc(C(=O)Nc3c(C)cccc3C)c2C1=O | -9.9 | 108.3 | 70.5 | 78.0
CC(C)n1cnc2nc(COc3ccc(NC(=O)COc4ccc(Cl)cc4)cc3)cc(=O)n21 | -10.2 | 99.5 | / | /
O=C(c1noc2c1CCCC2)N(Cc1ccco1)C1CCCC1 | -34.4 | 101.7 | 88.7 | 83.1
c1ccc(C2C3=C(Nc4ncnn42)c2ccccc2OC3c2cccs2)cc1 (stereo not given) | -21.3 | 99.3 | 89.4 | 80.0
CCOC(=O)C1CCCN(C(=O)CSc2ccc3ccccc3c2)C1 (stereo not given) | -45.5 | / | 121.6 | 92.4
COc1ccccc1N1CCN(c2ccc(=O)n(CC(=O)NCc3ccccn3)n2)CC1 | -28.4 | 106.1 | / | /
CCSc1ncc(Cl)c(C(=O)N(Cc2ccccc2)Cc2ccco2)n1 | 17.2 | 108.1 | 94.5 | 89.0
S=c1nc(-c2ccccc2)n(CCCn2ccnc2)c2c1CCCC2 | -35.0 | / | 95.0 | 98.1
Cc1cc(C)cc(NC(=O)Cn2c(=O)n(CC(=O)NCCc3ccccc3)c(=O)c3ccccc32)c1 | -43.5 | 103.9 | 88.4 | 94.1
Cc1oc2ccc(O)c(CN3CCCCC3)c2c1C(=O)Nc1ccccc1 | -4.9&-15.7 | 101.8&102.9 | 95.3 | 81.9
O=S1(=O)C[C@H](NCc2ccc3c(c2)OCO3)[C@@H](S(=O)(=O)c2cccs2)C1 | -13.1 | 97.0 | / | /

Reformatted with two lines to a compound: six of the compounds above.
Values in the order: HCMV NEC inh, GIV Gai3 FP, Sa growth 42C, Sa growth 42C second temp
> O=C(OCc1ccccc1)Sc1nnc(-c2ccccc2Cl)o1
→ -5.2, 100.4, 109.1, 94.6
> CCOc1ccc(-n2nc3ccc(NC(=O)Cc4ccccc4)cc3n2)cc1
→ -31.7, 104.4, 99.2, 88.4
> COCCN1Cc2cccc(C(=O)Nc3c(C)cccc3C)c2C1=O
→ -9.9, 108.3, 70.5, 78.0
> CC(C)n1cnc2nc(COc3ccc(NC(=O)COc4ccc(Cl)cc4)cc3)cc(=O)n21
→ -10.2, 99.5, /, /
> O=C(c1noc2c1CCCC2)N(Cc1ccco1)C1CCCC1
→ -34.4, 101.7, 88.7, 83.1
> c1ccc(C2C3=C(Nc4ncnn42)c2ccccc2OC3c2cccs2)cc1 (stereo not given)
→ -21.3, 99.3, 89.4, 80.0

One compound at a time, as listed above. Values in the order: HCMV NEC inh	GIV Gai3 FP	Sa growth 42C	Sa growth 42C second temp
CCSc1ncc(Cl)c(C(=O)N(Cc2ccccc2)Cc2ccco2)n1 is listed with 17.2	108.1	94.5	89.0
O=S(=O)(NCc1ccc2c(c1)CCO2)c1cccs1 is listed with 5.6	106.1	90.0	70.4

Next part.
SMILES | HCMV NEC inh | GIV Gai3 FP | Sa growth 42C | Sa growth 42C second temp
COc1cc(C)cc2oc(=O)cc(C)c12 | -14.0 | 108.5 | 94.7 | 86.0
CC(C)C(c1nnnn1C1CCCC1)N1CCc2ccccc21 (stereo not given) | -16.9 | 103.8 | 82.5 | 93.8
Cc1oc(S(=O)(=O)N2CCOCC2)cc1C(=O)NCCNc1ncccc1C(F)(F)F | -15.5 | 100.2 | 100.3 | 95.8
CC1=C(c2ccccc2)S(=O)(=O)N=C1N(C)Cc1ccccc1 | -20.1 | 104.8 | 98.0 | 87.0
FC(F)(F)c1ccc(N2CCOCC2)nc1 | -12.1 | / | 98.6 | 91.4
c1ccc(CCCNc2nnnn2-c2ccccc2)cc1 | -31.8 | / | 97.5 | 86.4
COc1cccc(OC)c1CN(C)C(=O)c1c(C(F)(F)F)ccnc1OC | -6.2 | 105.5 | 126.6 | 96.2
COc1ccc(C2CC(=O)c3c([nH]c(C(=O)OCCOc4ccccc4)c3C)C2)cc1OC (stereo not given) | -3.1 | 108.3 | 93.5 | 104.2
N#Cc1cc2c(nc1SCC(=O)N1CCCCC1)CCCCC2 | -10.2 | 99.5 | 86.1 | 78.2
